KCNQ2 enhance – potentiators of rat KCNQ2 potassium channel. CHO-K1 KCNQ2, FluxOR thallium flux fluorescence; hits give high values. B-score at 10 µM. 0.54% of 310,000 active. AID 2239, 2010. Potassium voltage-gated channel subfamily KQT member 2 (Rattus norvegicus), O88943;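 active means fluorescence ratio B-score at least 3 SD of library B-scores, with initial fluorescence B-score within 3 SD, cut at about 5.3 in these data; same plate scores as AID 2156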;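 further: B-score of peak minus minimum over baseline fluorescence ratio after K+ and Tl+ stimulus; positive B-score means potentiation of KCNQ2 with more thallium influx and brighter signal; only the inactives scoring about 0 or higher are listed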
KCNQ2 enhance baseline – second read-out of KCNQ2 enhance, no call of its own (marks repeat the call); B-score; compound at 10 µM; measured here: initial fluorescence intensity artifact check;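 brightness before thallium and not channel activity; 0 = typical well and far values either way flag optical interference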
Numbers without * were called inactive; · = no result given.

| item | compound | KCNQ2 enhance baseline | KCNQ2 enhance |
| --- | --- | --- | --- |
| 1 | CC(=O)[C@H]1CC[C@H]2[C@@H]3C[C@H](C)C4=CC(=O)CC[C@]4(C)[C@H]3[C@@H](O)C[C@]12C | -1.3 | 0.89 |
| 2 | Nc1ccc(C(=O)Nc2ccccc2N)cc1 | 0 | 1.1 |
| 3 | C/C=C/C=N\NC(=O)c1ccncc1 | -0.18 | 0.94 |
| 4 | O=c1cc[nH]c(=O)[nH]1 | -1.4 | 0.02 |
| 5 | CCOC(=O)C1(CCOc2ccccc2)CCN(Cc2ccc(O)c(Cl)c2)CC1 | 1.3 | 0.18 |
| 6 | O=C(O)COC(=O)Cc1ccccc1Nc1c(Cl)cccc1Cl | 0.57 | 0.18 |
| 7 | Cc1nc2c3ccccc3nc(NNC(=O)CCC(=O)N3CCN(c4ccccc4)CC3)n2n1 | 0.04 | 0.46 |
| 8 | NS(=O)(=O)c1cc2c(cc1C(F)(F)F)NC(Cc1ccccc1)NS2(=O)=O (stereo unspecified) | 2.4 | 0.02 |
| 9 | COc1nc(C)nc(Cl)c1NC1=NCCN1 | -0.68 | 2 |
| 10 | CN(C)CCCN1c2ccccc2Sc2ccccc21 | -1.7 | 3.8 |
| 11 | COc1ccccc1OCC(O)COC(N)=O (stereo unspecified) | 0.1 | 1.2 |
| 12 | O=C1N(c2ccccc2)c2ccccc2C1(Cc1ccncc1)Cc1ccncc1 | · | -5.6 |
| 13 | COc1ccc(CN(CCN(C)C)c2ccccn2)cc1 | -0.29 | 1.3 |
| 14 | CC1(C)OC2CC3C4CC(F)C5=CC(=O)C=CC5(C)C4(F)C(O)CC3(C)C2(C(=O)CO)O1 (stereo unspecified) | 0.33 | 0.11 |
| 15 | CN1CCC(=C2c3ccccc3CCc3sccc32)CC1 | 0.67 | 0.91 |
| 16 | CN(C)C/C=C(/c1ccc(Br)cc1)c1cccnc1 | -0.24 | 0.55 |
| 17 | CC(C)Cc1ccc(C(C)C(=O)O)cc1 (stereo unspecified) | 1.9 | 0.86 |

Four of the compounds above, with values under each structure:
Every second line gives: KCNQ2 enhance baseline | KCNQ2 enhance
[9] COc1nc(C)nc(Cl)c1NC1=NCCN1
    -0.68 | 2
[10] CN(C)CCCN1c2ccccc2Sc2ccccc21
    -1.7 | 3.8
[11] COc1ccccc1OCC(O)COC(N)=O (stereo unspecified)
    0.1 | 1.2
[12] O=C1N(c2ccccc2)c2ccccc2C1(Cc1ccncc1)Cc1ccncc1
    · | -5.6

Along the list, quoted from above:
KCNQ2 enhance, entries 10 to 14, in order: 3.8, 1.2, -5.6, 1.3, 0.11

Single records (already shown). Order of screens: KCNQ2 enhance baseline, KCNQ2 enhance
Nc1ccc(C(=O)Nc2ccccc2N)cc1 is entered as 0, 1.1
CC(C)Cc1ccc(C(C)C(=O)O)cc1 (stereo unspecified) is entered as 1.9, 0.86
NS(=O)(=O)c1cc2c(cc1C(F)(F)F)NC(Cc1ccccc1)NS2(=O)=O (stereo unspecified) is entered as 2.4, 0.02

Screening results from PubChem.

Not all compounds are listed; count on the stated rates, not on these rows.
